Source: PubChem
TAR Tat displ: TAR RNA-Tat peptide displacers, HIV-1, primary screen, biochemical, FRET, FAM/TAMRA-labeled Tat. 100,000 compounds, 0.6% hits. z-score (concentration not given with the values). HIV-1 TAR RNA, Tat peptide displacement FRET; stronger effect = higher value;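 note: score is relative to mean and SD of negative controls; some compounds called inactive have numbers as strong as hits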
CDC25B-CDK2 inh: primary biochemical HTRF screen for blockers of M-phase inducer phosphatase 2 binding to CDK2/cyclin A; 94,000 compounds, 0.72% hits; HTRF CDC25B-CDK2/CyclinA binding, anti-His/anti-Flag; stronger effect = higher value; P30305+P24941; z-score (test concentration not listed);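 note: score is relative to mean and SD of negative controls; strong numbers were not always called active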
An asterisk follows results filed as active; / = not tested or not shown.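 Rule for the calls: active = z-score from 3 up in half or more of its runs; inactive = the rest.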

SMILES	TAR Tat displ	CDC25B-CDK2 inh
COc1ccccc1-c1coc2cc(OCCc3ccccc3)ccc2c1=O	0.34	-0.46
Cc1ccccc1OCCN(C#N)c1nc(N(C)C)nc(N(C)C)n1	0.09	-0.25
CCOCCCNc1nc2c(S(=O)(=O)c3ccccc3)nnn2c2ccccc12	11*	-0.96
Cc1nc(SCC(=O)c2ccccc2)c(C#N)c(C)c1C	1.9	-1.6
Cc1cc(CCc2ccc3cc(N(C)C)ccc3[n+]2C)c(C)n1-c1ccccc1	-6	/
O=C1COc2cc(-c3c(NCc4ccc(F)cc4)c(=O)c3=O)ccc2N1	0.66	/
O=C(Cn1cc2c(n1)CCCCC2)Nc1ccccc1Br	-0.41	-1
COc1ccc(-n2nc(C(=O)Nc3cc(OC)ccc3OC)c3c4ccccc4n(C)c3c2=O)cc1	2.4	-0.52
CCS(=O)(=O)c1nc(S(=O)(=O)c2ccc(Cl)cc2)c(NCCN2CCOCC2)s1	-1.4	-0.16
CCOC(=O)CN(C(=O)CSc1n[nH]c(-c2ccncc2)n1)c1ccccc1	/	-1.1
COCCN1C(=O)c2oc3ccccc3c(=O)c2C12C(=O)N(C)c1ccccc12 (stereo unspecified)	2.5	0.56
Cc1cc2nc(N(CCN(C)C)C(=O)c3ccc4c(c3)OCCO4)sc2cc1C	0.59	/
Cc1n[nH]c(C)c1N=Nc1ccc(Cl)cc1Cl	/	-0.52
Cc1nn(-c2nc3ccccc3o2)c2c1C(c1cccnc1)CC(=O)N2 (stereo unspecified)	0.55	/
Cc1ccc(Nc2nc(N3CCC(C)CC3)nc(N)c2[N+](=O)[O-])cc1	0.13	/
CCC1CN(S(=O)(=O)c2cc(-c3cc(C)no3)ccc2C)c2cc(Cl)ccc2O1 (stereo unspecified)	0.07	/
CCN(CC)c1ccc2nnc(CCC(=O)Nc3nc(C)cs3)n2n1	0.36	/
O=S(=O)(Nc1ccc2c(c1)N(S(=O)(=O)c1ccccc1)CCC2)c1ccccc1Cl	0.78	/
CCSc1nnc(-c2nonc2NC(C)=O)n1CC	1.3	-1.8
CNC(=O)c1ccc(N2CCc3ccccc32)s1	-1.7	1.6
O=C(c1cnn2ccccc12)N(Cc1ccco1)C1CCCC1	/	-1.3
CC(C)Cn1cc(NC(=O)N2CCN(C(=O)c3ccco3)CC2)c2ccccc2c1=O	-0.28	/
O=c1c(-c2ccccc2)c(N2CCN(c3ccccn3)CC2)c1=O	1.8	/
O=C(Oc1ccc([N+](=O)[O-])cc1)c1c(Cl)cccc1Cl	/	-1.4
Cc1sc2nc(C(C)(C)C)oc(=O)c2c1C	/	-0.21

Next section:
SMILES	TAR Tat displ	CDC25B-CDK2 inh
CCOc1ccc(C2C3=C(CC(C)(C)CC3=O)Nc3cc4c(cc32)OCO4)cc1 (stereo unspecified)	0.84	-0.93
Cc1ccccc1CO/N=C\c1[nH]ncc1Br	/	-0.67
O=C(c1cc(-c2ccccc2)on1)N(Cc1ccco1)C1CCS(=O)(=O)C1 (stereo unspecified)	1.7	-0.96
CCCC(=O)OC1=CN(C(C)C)S(=O)(=O)c2ccccc21	0.45	-1.1
O=C(CN1C(=O)c2cccnc2Oc2ccc(Cl)cc21)NC1CC1	0.11	/
Cc1ccccc1NC(=O)NCCc1ccccc1	/	-2
Cc1ccc2oc(-c3cc(NC(=S)NC(=O)c4ccccc4F)ccc3O)nc2c1	/	-3.3
Cc1oc(-c2cccc(Cl)c2)nc1CSc1nncn2c1cc1occc12	0.31	/
COc1ccc(-c2cc3nc(C)cc(C)n3n2)c(OC)c1	/	-0.62
Cc1cc(C)c2c(n1)nn1c(C)c(CCC(=O)NC3CCCCC3)c(C)nc21	0.27	-0.83
CC1CCC(NC(=O)CN2C(=O)c3cccnc3Oc3ccc(Cl)cc32)CC1 (stereo unspecified)	0.97	/
O=C(NCC1CCCO1)C(=O)NCC(c1ccc2c(c1)OCO2)N1CCOCC1 (stereo unspecified)	1.7	/
COc1ccccc1N1C(=O)CC(Nc2ccccc2)C1=O (stereo unspecified)	0.03	-1.9
CCc1ccc(-c2cn3c(n2)sc2cc(C(=O)O)ccc23)cc1	1.7	-2.6
CCC(=O)Nc1nc(C)c(-c2csc(Nc3ccc(S(=O)(=O)Nc4cc(C)on4)cc3)n2)s1	/	-2.9
CN(C)CCCNCC1CCOC(C)(C)C1 (stereo unspecified)	2.2	-0.66
O=C(NCCCSCc1ccco1)Nc1ccccc1Cl	-0.2	-1.4
CN1c2ccccc2-c2nc(SCC(=O)Nc3cccc(F)c3)ncc2S1(=O)=O	0.77	/
Cc1ccc(C)c(N2CCN(S(=O)(=O)c3c(C)nc4sccn4c3=O)CC2)c1	0.13	-1.4
CCOC(=O)/C=C(/Nc1ccccc1SC)c1ccccc1	/	-0.9
CCC1(C)Cc2ccccc2C(NC(=O)Nc2ccc(F)cc2)=C1C#N (stereo unspecified)	0.6	0.91
O=C(CSc1ccc(C(F)(F)F)cn1)Nc1ccc2c(c1)OCCO2	/	-1.5
CC(C)OCCCN(C)C1CCN(C(=O)C2CCN(c3ccc(-c4cccs4)nn3)CC2)CC1	-0.55	/
COc1ccccc1CNS(=O)(=O)c1cccc2nsnc12	3.3	-1.1
O=C(CSc1ccsc1[N+](=O)[O-])N1CCN(C(=O)c2ccco2)CC1	-1.4	-3.9

Other compounds
SMILES	TAR Tat displ	CDC25B-CDK2 inh
Cc1ccc(-c2noc(C(C)NS(=O)(=O)c3ccc(C)cc3)n2)cc1 (stereo unspecified)	0.26	-0.81
Cc1cc(NC(=O)CSc2cn(C)c3ccccc23)no1	/	-2.3
OC1(C(F)(F)F)CC(c2ccc3ccccc3c2)=NO1 (stereo unspecified)	/	-2.1
CCOCCCNC(=O)C1CCCN(c2nnc(-n3c(C)ccc3C)s2)C1 (stereo unspecified)	-1.3	-0.39
c1cnc2nc(CSC3=NCCS3)cn2c1	0.49	0.05
CCn1nc(C)c(CCNS(=O)(=O)c2ccc(CC(C)C)cc2)c1C	2	/
COC(=O)c1ccccc1NC(=O)C1c2ccccc2Oc2ccccc21	/	0.21
CC12CCC(O)CC1=CCC1C2CCC2(C)/C(=N/NC(N)=O)CCC12 (stereo unspecified)	/	-0.79
CCOc1ccc(N2C(=O)CC(NCCNc3ccc([N+](=O)[O-])cn3)C2=O)cc1 (stereo unspecified)	0.3	-1.3
c1ccc(CNc2ncnc3c2cnn3-c2ccccc2)cc1	2.6	/
O=C(CSc1nnc(Cn2c(=O)sc3ccccc32)n1-c1ccccc1)NCc1ccccc1	/	-0.67
N=C1C(c2nc3ccccc3s2)=C(O)CN1c1cccc(Br)c1	1.6	-1.6
CCOC(=O)c1oc2ccc(S(=O)(=O)N3CCC(CN4CCC(C)CC4)CC3)cc2c1C	0.22	/
O=C(Cn1c(=O)oc2ccccc21)N1CCN(c2ccc(N3CCOCC3)nn2)CC1	/	-1.2
C=CCn1c(N2CCN(Cc3ccccc3)CC2)nc2c1c(=O)[nH]c(=O)n2C	/	-2.9
Cc1nc(N2CCOCC2)c2c(C(=O)Nc3ccc(F)cc3)c(C)oc2n1	-0.11	/
CC(C)CCNS(=O)(=O)c1ccc2c(c1)CCCC(=O)N2	-0.67	/
COc1ccccc1N1C(N)=NC(N)=NC12CCCCC2	/	-0.95
O=C(O)COCc1nc2cccnc2n1Cc1ccccc1	0.71	/
O=C(NCc1ccccc1)C(CS(=O)(=O)Cc1ccccc1)N1Cc2ccccc2C1=O (stereo unspecified)	1.9	/
Cc1cccn2c(=O)c(C(=O)N3CCN(c4ccccc4)CC3)cnc12	2	/
COc1ccccc1C1C2=C(CC(C)(C)CC2=O)Nc2ncnn21 (stereo unspecified)	1.1	/
CCc1nn2c(=O)c(S(=O)(=O)N3CCN(c4ccc(C)cc4C)CC3)c(C)nc2s1	0.42	-0.76
O=C(NCCCN1CCOCC1)c1cc2ccc3cccnc3c2[nH]1	-0.69	/
CC(=O)OC1CC[C@@]2(C)C(CC[C@]3(C)C2CCC2C4CC(C)(C)CCC4(C(=O)O)CC[C@]23C)C1(C)C (stereo partly specified)	1.8	/

Next part:
SMILES	TAR Tat displ	CDC25B-CDK2 inh
CCNC(=O)Cn1nc(C)c2nn(-c3ccc(Cl)cc3)c(C)c2c1=O	0.65	/
O=S(=O)(c1cc(Cl)sc1Cl)N1CCN(CCc2ccccc2)CC1	/	-2.7
COc1ccc(C2CC(=O)c3cnc(N4CCN(Cc5ccc6c(c5)OCO6)CC4)nc3C2)cc1 (stereo unspecified)	-0.03	-1.3
Cc1ccc(NC(=O)C2CC3CCCN3C23C(=O)Nc2ccccc23)c(C)c1 (stereo unspecified)	0.13	/
Cc1ccc(S(=O)(=O)n2nc(-c3ccc(C)c(C)c3)nc2N)cc1	-0.86	-0.35
CC1CCCC(NC(=O)Cn2cc3c(n2)CCCC3)C1C (stereo unspecified)	0.15	-0.95
C=C(C)CSC1=C(C#N)C(c2ccc(OCC)cc2)C(C(=O)OC)C(=O)N1 (stereo unspecified)	-2	1.1
CNC(=O)c1ccc2c(c1)NC(=O)c1ccccc1S2	0.53	0.85
C[Si](C)(C)OC(=O)/C=C\C(=O)O[Si](C)(C)C	/	6.1*
CN(C)CCN(Cc1ccco1)C(=O)c1nn(C)c2c1COc1ccccc1-2	1.1	-1.2
O=C(Oc1ccccc1)c1ccc(=O)oc1	0.82	0.22
O=C(NCc1cccn1Cc1ccc(F)cc1)Nc1ccc(F)cc1F	-0.15	/
CCOc1cc(-c2nc(C(N)=O)c3[nH]c(=O)n(-c4ccc(F)cc4)c3n2)ccc1OC(C)C	1.1	/
O=C(CSc1ncnc2c1sc1cccc(F)c12)NCCCN1CCCC1=O	-0.2	/
O=C(C1CC1)N1CCc2cc(Br)cc(S(=O)(=O)NCCCN3CCOCC3)c21	/	-0.43
CCOC(=O)CSc1ccc(C(=O)O)c2c(C(=O)O)cccc12	/	-1.9
CC(=O)SC1CC2=CC(=O)CC[C@]2(C)C2CC[C@@]3(C)C(CC[C@@]34CCC(=O)O4)C12 (stereo partly specified)	/	-1.1
CCOC(=O)CN1C(C(=O)c2ccccc2)=C(OC(=O)CC)c2ccccc2S1(=O)=O	0.73	1.3
CCCc1nnc(NC(=O)C(=O)c2c[nH]c3ccccc23)s1	1.4	0.11
C=CCN1CC(c2nc3ccccc3n2C(C)C)CC1=O (stereo unspecified)	-0.83	-1.1
CC(=O)N1CCOc2ccc(S(=O)(=O)NC3CCCc4ccccc43)cc21 (stereo unspecified)	1.9	-1.2
COc1ccc(N2CCN(C(=O)CCNS(=O)(=O)c3ccc4c(c3)CCC(=O)N4)CC2)cc1	/	-2
CC(C)CCNC(=O)c1cnc(N2CCCC2)nc1	0.15	-1.9
O=C(NC1CCCCC1)c1cccc(-n2cnnc2)n1	1.5	/
CCn1c(C(=O)N2CCCC(C(=O)NCCc3ccc(C)cc3)C2)cc2sccc21 (stereo unspecified)	/	-1.2

Next entries follow.
SMILES	TAR Tat displ	CDC25B-CDK2 inh
CC1Cc2cc(S(=O)(=O)N3CCC(C(=O)Nc4cccnc4)CC3)ccc2N1C(=O)C1CCC1 (stereo unspecified)	0.52	/
Cn1c(SCc2cc(=O)[nH]c(=O)[nH]2)nnc1C(F)(F)F	/	-1.5
Cc1ccc(S(=O)(=O)Cc2noc(CCC(=O)O)n2)cc1	2.5	-1.9
Cc1oc2cc(OCC(=O)O)ccc2c(=O)c1-c1ccc2c(c1)OCCO2	/	-2.7
Cn1c(=O)c(=O)n(C)c2cc(S(=O)(=O)CCC(=O)N3CCc4ccccc43)ccc21	1.2	-0.89
COc1ccc(C(C)N2CC34C=CC(O3)C(C(=O)O)C4C2=O)cc1 (stereo unspecified)	0.94	0.24
CC(=O)N1c2ccc(S(=O)(=O)NCC3CCC(C(=O)N4CCC(C)CC4)CC3)cc2CC1C (stereo unspecified)	-0.9	/
O=[N+]([O-])/C=C/c1c2ccccc2cc2ccccc12	/	-2.3
O=C(NNC1=C(C(=O)C(F)(F)F)CCC1)c1ccc(-c2ccccc2)cc1	/	-4.4
N#Cc1nc(COc2ccc(Cl)cc2)oc1NCCc1ccccc1	-0.74	-0.16
Cc1[nH]c(C(=O)N2CCCCC2)c(C)c1C(=O)NC1CCCCC1	0.49	-3
COc1ccc(-c2noc(NCc3ccc(Cl)cc3)n2)cc1OC	0.43	/
Cc1cc(S(=O)(=O)NC(c2ccccc2)c2nnc(-c3ccccc3)o2)ccc1F (stereo unspecified)	0.78	-0.3

Full records as entered above. Order of screens: TAR Tat displ, CDC25B-CDK2 inh
Cn1c(=O)c(=O)n(C)c2cc(S(=O)(=O)CCC(=O)N3CCc4ccccc43)ccc21 is listed as 1.2, -0.89
Cc1[nH]c(C(=O)N2CCCCC2)c(C)c1C(=O)NC1CCCCC1 is listed as 0.49, -3
COc1ccc(C(C)N2CC34C=CC(O3)C(C(=O)O)C4C2=O)cc1 (stereo unspecified) is listed as 0.94, 0.24
Cc1cc(S(=O)(=O)NC(c2ccccc2)c2nnc(-c3ccccc3)o2)ccc1F (stereo unspecified) is listed as 0.78, -0.3

Random excerpt: four compounds from above
SMILES	TAR Tat displ	CDC25B-CDK2 inh
COc1ccccc1N1C(N)=NC(N)=NC12CCCCC2	/	-0.95
O=C(CSc1ccsc1[N+](=O)[O-])N1CCN(C(=O)c2ccco2)CC1	-1.4	-3.9
CC(=O)N1c2ccc(S(=O)(=O)NCC3CCC(C(=O)N4CCC(C)CC4)CC3)cc2CC1C (stereo unspecified)	-0.9	/
C[Si](C)(C)OC(=O)/C=C\C(=O)O[Si](C)(C)C	/	6.1*

Copied from the list:
CDC25B-CDK2 inh with Cc1oc2cc(OCC(=O)O)ccc2c(=O)c1-c1ccc2c(c1)OCCO2 reads -2.7
TAR Tat displ with N#Cc1nc(COc2ccc(Cl)cc2)oc1NCCc1ccccc1 reads -0.74
TAR Tat displ with CC1Cc2cc(S(=O)(=O)N3CCC(C(=O)Nc4cccnc4)CC3)ccc2N1C(=O)C1CCC1 (stereo unspecified) reads 0.52
TAR Tat displ with Cc1ccc(S(=O)(=O)Cc2noc(CCC(=O)O)n2)cc1 reads 2.5
TAR Tat displ with COc1ccc(C(C)N2CC34C=CC(O3)C(C(=O)O)C4C2=O)cc1 (stereo unspecified) reads 0.94
